Polio RdRp inh: poliovirus RNA polymerase inhibition; poliovirus polymerase elongation, fluorescence polarization; stronger effect = lower value; % elongation, % (compound at 16.7 µg/mL); 0.66% of 150,000 active; in the data active = % elongation below about 90%; note: some results filed as inactive read as strong as hits
Target sequence (P03300 1749-2209 limits assumed): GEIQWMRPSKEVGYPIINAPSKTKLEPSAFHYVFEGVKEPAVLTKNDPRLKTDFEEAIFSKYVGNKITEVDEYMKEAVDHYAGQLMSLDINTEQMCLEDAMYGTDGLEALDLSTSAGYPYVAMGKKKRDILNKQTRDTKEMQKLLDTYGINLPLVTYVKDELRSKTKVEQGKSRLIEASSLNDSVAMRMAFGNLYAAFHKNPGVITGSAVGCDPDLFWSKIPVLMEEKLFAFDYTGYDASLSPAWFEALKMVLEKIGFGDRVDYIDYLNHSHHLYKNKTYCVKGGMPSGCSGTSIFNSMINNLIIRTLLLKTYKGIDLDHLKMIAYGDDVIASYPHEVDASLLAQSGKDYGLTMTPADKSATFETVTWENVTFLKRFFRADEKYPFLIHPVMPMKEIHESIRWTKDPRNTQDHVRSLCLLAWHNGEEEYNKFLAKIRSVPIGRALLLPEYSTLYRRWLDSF
Polio RdRp inh intensity: further read-out of Polio RdRp inh, marked with its call; % elongation; measured here: total intensity read-out; formula for this scale not given here;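 total fluorescence in place of polarization; lower means less elongation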
* marks the source's active call; other numbers are inactive results.

Preview, seven compounds:
Every second line gives: Polio RdRp inh	Polio RdRp inh intensity
CCOc1ccc(CCNC(=O)c2ccc3[nH]c(C)c(C)c3c2)cc1
 : 109	107
COc1cc2nc(NCc3ccccc3Cl)n3nc(-c4cccnc4)nc3c2cc1OC
 : 105	103
COc1ccc(N2CCN(Cc3nc4c(c(=O)[nH]c(=O)n4C)n3Cc3ccc(C)cc3)CC2)cc1
 : 102	103
CCOC(=O)c1cc(S(=O)(=O)N2CCN(c3ccccc3F)CC2)[nH]n1
 : 106	109
CCc1ccc(NC(=O)Cn2c(C(=O)OC)cc3oc(C)cc32)cc1
 : 109	109
Cc1ccc2oc(=O)c3cc(C(=O)Nc4ccc(F)cc4F)sc3c2c1
 : 101	98
Fc1ccccc1N1CCN(c2ncnc3onc(-c4ccc(Cl)cc4)c23)CC1
 : 101	102

Results, from the first entry:
Every second line gives: Polio RdRp inh	Polio RdRp inh intensity
CCOc1ccc(CCNC(=O)c2ccc3[nH]c(C)c(C)c3c2)cc1
 : 109	107
COc1cc2nc(NCc3ccccc3Cl)n3nc(-c4cccnc4)nc3c2cc1OC
 : 105	103
COc1ccc(N2CCN(Cc3nc4c(c(=O)[nH]c(=O)n4C)n3Cc3ccc(C)cc3)CC2)cc1
 : 102	103
CCOC(=O)c1cc(S(=O)(=O)N2CCN(c3ccccc3F)CC2)[nH]n1
 : 106	109
CCc1ccc(NC(=O)Cn2c(C(=O)OC)cc3oc(C)cc32)cc1
 : 109	109
Cc1ccc2oc(=O)c3cc(C(=O)Nc4ccc(F)cc4F)sc3c2c1
 : 101	98
Fc1ccccc1N1CCN(c2ncnc3onc(-c4ccc(Cl)cc4)c23)CC1
 : 101	102
O=S(=O)(c1ccc(OC(F)(F)F)cc1)N1CCC(c2nc3ccccc3s2)CC1
 : 101	105
CCOC(=O)N1CCc2c(sc3c2c(=O)n(-c2ccc(Cl)cc2)c(=O)n3CC(C)C)C1
 : 107	110
Cc1ccccc1-n1nc(CO)c(C(=O)NCCc2ccccc2)n1
 : 111	112
Cc1cccc(-c2nnn3c2nc(NCc2ccc4c(c2)OCO4)c2ccccc23)c1
 : 103	106
Cc1cccn2c(=O)c(C(=O)N3CCN(c4ccccc4F)CC3)cnc12
 : 106	95
O=C(CCc1nc2cccnc2n1Cc1cccs1)Nc1cccc(C(F)(F)F)c1
 : 109	132
Cc1cccc(CN2C(=O)c3ccccc3Sc3ccc(C(=O)NCc4cccs4)cc32)c1
 : 110	112
COc1ccccc1NC(=O)c1cnc(SCC(=O)N2CCOCC2)n(C)c1=O
 : 105	113
Cc1oc2ncn(CC(C)C)c(=O)c2c1C(=O)Nc1ccc(Cl)cn1
 : 109	111
CCc1ccc2c(c1)-c1ccccc1S(=O)(=O)N2CC(=O)N1CCC(C)CC1
 : 101	100
CCOC(=O)C1CCCN(C(=O)c2ccc(-n3ccc4ccccc43)s2)C1 (stereo not given)
 : 105	105
COc1ccc(CCN2C(=O)c3[nH]nc(-c4ccccc4O)c3C2c2ccccc2)cc1 (stereo not given)
 : 111	106
Cc1nn(Cc2ccc(F)cc2)c(C)c1NC(=O)c1cc(CC(C)C)on1
 : 105	108
Cc1ccc(NC(=O)N2CC3CCCN3c3ccccc32)cc1C (stereo not given)
 : 103	107
CCOc1cc(CNC(=O)c2ccc3c(c2)nc2n3CCCCC2)ccc1OC
 : 104	101
Clc1cccc(-n2cc(-c3ccccc3)c3c(NC4CCCC4)ncnc32)c1
 : 109	108
Oc1ccc(Nc2nc(-c3ccc(Cl)cc3)nc3ccccc23)cc1
 : 107	104
Cc1cccc(C(=O)Nc2cccc(OCc3cc(=O)n4ccccc4n3)c2)c1
 : 102	108
Cc1ccccc1C(=O)Nc1ccc(OCc2cc(=O)n3cccc(C)c3n2)cc1
 : 106	111
O=C(Cc1ccccc1)Nc1cc(-c2nc3cc(Cl)ccc3o2)ccc1Cl
 : 106	107
O=C(NCCc1ccccc1)c1c[nH]c2ccc(S(=O)(=O)Nc3ccccc3F)cc2c1=O
 : 106	105
CCOc1ccc(-n2nc(CO)c(C(=O)NCc3cccnc3)n2)cc1
 : 110	109
Cc1c(NC(=O)Nc2ccc(Cl)c(Cl)c2)sc2nc3n(c(=O)c12)CCC(C)CC3 (stereo not given)
 : 107	112
Cc1cccc(Nc2c(-c3cccs3)nc3nc(C)cc(C)n23)c1
 : 107	100
CCN(c1ccccc1)S(=O)(=O)c1nnc(NC(=O)COc2ccc(OC)cc2)s1
 : 106	107
COc1cc2c(cc1NC(=O)c1ccccc1C)n(C)c(=O)n2C
 : 108	108
Cc1cc(C)cc(NC(=O)Cn2nnc(-c3ccccc3F)n2)c1
 : 105	93
Cc1ccc(C(=O)NC2(C(F)(F)F)N=C(c3ccccc3)N(C3CCCCC3)C2=O)cc1 (stereo not given)
 : 106	109
COc1cccc(-c2nc(SCC(=O)NCC3CCCO3)c(-c3ccc(C)cc3)[nH]2)c1 (stereo not given)
 : 115	115
Cc1ccc2oc(C(=O)NCC(c3ccc(Cl)cc3)N3CCOCC3)c(C)c2c1 (stereo not given)
 : 107	112
Cc1ccc(CNC(=O)c2cc(NS(=O)(=O)c3ccc(C)cc3)ccn2)cc1
 : 106	111
CC(C)Cn1c(/C=C/c2ccc(F)cc2)nc2ccccc21
 : 104	108
COC(=O)c1ccc(Cn2nnc3c(=O)[nH]c(C4CCCN(S(=O)(=O)c5cccc(Cl)c5)C4)nc32)cc1 (stereo not given)
 : 111	111
CCc1nn2c(=O)cc(COC(=O)c3cccc(NC(=O)CCc4ccccc4)c3)nc2s1
 : 97	104
CN1C(=O)c2ccccc2Sc2ccc(NC(=O)c3ccccc3F)cc21
 : 98	105
CCOc1ccc(NC(=O)CN(Cc2ccccc2)S(=O)(=O)c2ccc3nc(C)sc3c2)cc1
 : 105	108
O=C(NC1CCCCC1)c1cc2c(Cl)nc3ccccc3c2s1
 : 105	105
O=C(CS(=O)(=O)c1cccc2nsnc12)Nc1ccc(F)cc1F
 : 104	112
Cc1cc(C)cc(NC(=O)C(=O)NCC(c2cccnc2)N2CCc3ccccc3C2)c1 (stereo not given)
 : 111	106
Cc1nc(-c2ccccc2)sc1-c1ccc(SCC(=O)Nc2ccc(F)cc2F)nn1
 : 108	104
Cc1cc(C)c(NC(=O)C(C)n2c(=O)cc(-c3ccccc3)c3c(C)nn(C)c32)c(C)c1 (stereo not given)
 : 112	111
N#CC1=C2SCN(C3CCCCC3)CN2C(=O)CC1c1ccc(Cl)cc1 (stereo not given)
 : 98	98
O=C(Cn1cc(S(=O)(=O)Cc2ccccc2Cl)c2ccccc21)Nc1cccc(C(F)(F)F)c1
 : 109	111
CC(C)c1ccc(N2C(=O)CSC23C(=O)N(Cc2ccccc2)c2ccccc23)cc1 (stereo not given)
 : 109	110
CCC(CC)C(=O)Nc1nnc(S(=O)(=O)N(C)c2cc(C)cc(C)c2)s1
 : 103	103
Cc1[nH]c2ccccc2c1C(c1ccccc1)c1ccc(Cl)s1 (stereo not given)
 : 108	110
O=C(Nc1ccc(Cl)cc1)N1CCC(CN2CCCCCC2)CC1
 : 105	112
C=Cc1ccc(Cn2c(=O)n(-c3cccc(C)c3)c(=O)c3c2c2cc(C)ccc2n3C)cc1
 : 105	100
CCN(C(=O)CSc1nnc(-c2cc3occc3n2C)n1-c1ccccc1C)c1ccccc1
 : 106	94
CN1CCN(C(=O)c2ccc3c(c2)N(Cc2ccc(C(F)(F)F)cc2)C(=O)c2ccccc2S3)CC1
 : 104	105
COc1cccc(Cc2nc3ccccc3nc2SCC(=O)N2CCN(c3ccccc3)CC2)c1
 : 102	103
Cn1c2c(c(=O)n(C)c1=O)C(c1cccc(O)c1)CC(=O)N2 (stereo not given)
 : 108	109
CCc1cccc(C)c1Nc1c(-c2cccs2)nc2ncccn12
 : 114	127

Later entries.
Every second line gives: Polio RdRp inh	Polio RdRp inh intensity
COc1ccc(Cn2c(SCC(=O)Nc3ccc(OC)cc3)nc3ccccc32)cc1
 : 99	105
O=C(c1ccc2c(c1)N(Cc1ccc(Cl)cc1)C(=O)c1ccccc1S2=O)N1CCC(Cc2ccccc2)CC1 (stereo not given)
 : 105	104
CCOc1ccc(NC(=O)CCCOc2cc(=O)n(C)c3ccccc23)cc1
 : 101	100
CCCCN1CCCc2cc(CN(CCCN3CCOCC3)C(=O)Nc3ccc(CC)cc3)ccc21
 : 108	110
COc1ccccc1Cc1nc2ccccc2nc1SCC(=O)NCc1ccc(F)cc1
 : 110	112
COc1ccc(C(=O)c2sc3nc4c(c(C(F)(F)F)c3c2N)CN(C(C)=O)CC4)cc1OC
 : 80	232
COc1ccc(-c2nc3ccccc3o2)cc1NC(=O)c1cccc2c(Cl)cccc12
 : 105	111
COc1cccc(NC(=O)Cn2nc(-c3ccncc3)ccc2=O)c1
 : 103	105
Cc1ccc2c(=O)cc(C(=O)Nc3ccc(S(=O)(=O)N4CCCCCC4)cc3)oc2c1C
 : 106	112
CCC(Sc1nc(-c2ccccc2)[nH]c1S(=O)(=O)c1ccc(C)cc1)C(=O)O (stereo not given)
 : 106	109
CCCOc1ccc(C2C(=O)N(C3CCCCCC3)CC(=O)N2C(C)C)cc1OC (stereo not given)
 : 109	114
CCN(CC)C(=O)c1sc2c(c1C)c(=O)n(CCc1ccccc1)c(=O)n2Cc1ccc(F)cc1Cl
 : 106	110
COc1ccc(NC(=O)N2CCN(Cc3nc4ccc(C)cc4o3)CC2)cc1OC
 : 112	109
CNC(=O)C1CCC(Cn2c(=O)c3sccc3n(CC(=O)Nc3ccc(C)c(C)c3)c2=O)CC1 (stereo not given)
 : 101	102
CCOC(=O)c1noc2nc(C)n(CC(=O)Nc3cccc(OC)c3)c(=O)c12
 : 98	95
Cc1cc(C)c(NC(=O)Cn2nnc(-c3nc(-c4ccncc4)no3)c2N)c(C)c1
 : 112	117
O=C(Nc1ccc2nc(SCC(=O)N3CCOCC3)sc2c1)c1ccc(Cl)cc1
 : 105	97
Cc1ccc(Sc2ccc(N3CCC(C(=O)Nc4ccc(Cl)cc4)CC3)nn2)cc1
 : 108	114
COc1ccc(-c2cc(C(C)=O)c(C)n2CCC(=O)NCc2ccc(F)cc2)cc1
 : 108	107
CCc1ccccc1NS(=O)(=O)c1ccc2c(c1)OCC(C(=O)N1CCCC1)O2 (stereo not given)
 : 105	104
COc1ccccc1NC(=O)c1sc2nc(C)c(C(=O)Nc3ccc(Cl)cc3)c(-c3ccc(Br)cc3)c2c1N
 : 103	108
COc1ccc(CNC(=O)C(C)n2ccc3cc(S(=O)(=O)N4CCCC4)ccc32)cc1OC (stereo not given)
 : 115	112
Cc1cccc(N2C(=O)N(CC(=O)C(C)(C)C)c3ccccc3S2(=O)=O)c1C
 : 109	112
COc1ccc(/C=C/C(=O)Nc2ccc3nc(N4CCCCC4)cc(C)c3c2)cc1OC
 : 105	105
COC(=O)c1ccccc1NC(=O)c1cnc2sc(N3CCOCC3)nn2c1=O
 : 106	107
Cc1ccc(-c2c3c(=O)n(C)c(=O)n(C)c3c3c(C(F)(F)F)nc4ccccc4n23)cc1
 : 104	111
CCCc1nnc(NC(=O)Cc2coc3ccc(C)cc23)s1
 : 114	117
CCCCOc1ccc(S(=O)(=O)Nc2ccc(-c3ccc(N4CCCCC4)nn3)cc2)cc1
 : 101	104
CCOc1ccc(NC(=O)c2cnc(Nc3ccccc3OC)c3ccccc23)cc1
 : 105	107
CCOc1ccc(CNS(=O)(=O)c2ccc3[nH]c4c(c3c2)CCCC4)cc1OC
 : 105	108
COc1cccc(C(=O)Nc2ccc(-n3nncc3-c3ccc(Br)cc3)cc2)c1OC
 : 111	106
CC1CCN(CC(=O)N2CCCc3c2c(=O)oc2ccc(OCc4ccccc4)cc32)CC1
 : 97	98
O=C(CSc1nc2ccccc2nc1Cc1ccc(F)cc1)Nc1ccc2c(c1)OCO2
 : 103	102
Cc1ccc(NC(=O)NC(C)c2c(-n3cccc3)sc(C)c2C)c(C)c1 (stereo not given)
 : 109	115
CCC(=O)N1c2ccccc2CC1C(=O)NCCN1CCN(c2cccc(C(F)(F)F)c2)CC1 (stereo not given)
 : 105	97
COc1cc(NC(=O)c2noc3c2CC(C(C)(C)C)CC3)cc(OC)c1OC (stereo not given)
 : 105	109
COc1ccccc1NC(=O)c1sc2nc(C)c(C(=O)Nc3ccc(C)cc3C)c(-c3ccco3)c2c1N
 : 105	115
CC(=O)c1cccc(NC(=O)CSc2nnc3ccc(-c4ccc(Br)cc4)nn23)c1
 : 107	113
COc1ccc(-c2coc3c2c(C)cc2oc(=O)cc(C)c23)cc1
 : 104	107
CC(C)c1ccc(NC(=O)C2CCN(S(=O)(=O)c3cccc4nonc34)CC2)cc1
 : 105	113
Cc1ccccc1Cn1c(SCc2ccc(C(=O)NCc3cccs3)cc2)nc2ccncc21
 : 118	111
Cc1ccc(Cl)cc1NS(=O)(=O)c1ccc(N2CCCCS2(=O)=O)cc1
 : 108	106
CCCn1c(=O)c2sccc2n2c(CCCC(=O)NCCc3ccc(Cl)cc3)nnc12
 : 117	123
COc1ccc(CNc2ncnc3c2nnn3C)cc1
 : 104	102
COc1ccc(C(=O)Nc2cc(-c3cccc(C)c3)nn2-c2ccccc2)cc1
 : 99	96
Cc1ccc(N2CC(NC(=O)c3cccs3)CC2=O)cc1C (stereo not given)
 : 105	111
COc1cc2c(cc1OC)n(Cc1cccc(C(F)(F)F)c1)c(=O)n1nc(-c3ccccc3)nc21
 : 105	109
COc1cccc(NC(=O)c2cnn(-c3ccccc3)c2-n2cccc2)c1
 : 103	98
Cc1ccc(-n2nc(CO)c(C(=O)NCCc3ccccc3)n2)cc1C
 : 105	105
COC(=O)c1ccccc1NC(=O)CCCn1c(=O)c2cccn2c2cccnc21
 : 102	108
Cc1cccc(N2CCN(S(=O)(=O)c3c(C(=O)N4CCC(C)CC4)c(C)n(C)c3C)CC2)c1C
 : 107	111
COC(=O)c1nnn(-c2ccc(Br)cc2)c1C(=O)OC
 : 108	106

One compound at a time, from the list above. Values in the order: Polio RdRp inh | Polio RdRp inh intensity
CC(=O)c1cccc(NC(=O)CSc2nnc3ccc(-c4ccc(Br)cc4)nn23)c1 across the screens: 107 | 113
O=C(CSc1nc2ccccc2nc1Cc1ccc(F)cc1)Nc1ccc2c(c1)OCO2 across the screens: 103 | 102

High-throughput results as filed in PubChem BioAssay.

An excerpt; the hit share may differ from the screen's.
